# Source: PubChem (several laboratories)
# Calb FLC = C. albicans growth inhibition with fluconazole, primary screen, CaCi-2 strain, Alamar Blue fluorescence | C. albicans CaCi-2 (fluconazole-resistant clinical isolate) + fluconazole, 48 h | growth inhibition, % (no concentration beside the values) | actives 0.57% (n = 300,000) | AID 1979, 2009;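 active means most replicates above 75%; inconclusive means exactly half above 75%; inactive means most below 75%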;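 further: all wells also contain fluconazole at 8 µg/ml as a sub-toxic cotreatment; 0% = median of DMSO wells and 100% = median of geldanamycin control wells; wells of about 8 µL received 7.5 nL stock; the first replicate is given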
# Beta2AR agonist = beta2AR agonists driving receptor internalization, primary screen, cell-based, FAP fluorogen, flow cytometry; Am2.2-beta2AR cells; reference of the scale not given here; response, % (no concentration beside the values); actives 0.43% (n = 340,000); AID 504454, 2011;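 active means response above a set limit, near 3 SD of response in nonfluorescent compounds, cut at about 42% in these data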;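 further: stock transfer was 100 nL into about 11 µL; a reference agonist was the positive control; negative values mostly stem from fluorescent compounds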
# Target sequence (P07550 whole entry, looked up): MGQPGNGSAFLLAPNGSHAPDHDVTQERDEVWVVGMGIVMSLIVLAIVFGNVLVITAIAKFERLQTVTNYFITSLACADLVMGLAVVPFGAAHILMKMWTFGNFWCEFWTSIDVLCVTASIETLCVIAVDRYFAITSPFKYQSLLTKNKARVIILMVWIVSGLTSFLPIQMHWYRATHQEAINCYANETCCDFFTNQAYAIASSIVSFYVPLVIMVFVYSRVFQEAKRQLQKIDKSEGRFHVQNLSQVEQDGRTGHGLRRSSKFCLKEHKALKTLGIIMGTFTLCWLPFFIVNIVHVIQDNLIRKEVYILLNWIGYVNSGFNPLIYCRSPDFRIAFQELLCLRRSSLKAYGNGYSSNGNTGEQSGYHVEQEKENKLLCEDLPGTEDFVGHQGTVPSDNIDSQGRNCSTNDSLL
# Beta apoptosis = inhibitors of cytokine-induced beta cell apoptosis, primary screen, luminescence; protection from apoptosis, % (concentration not given with the values); AID 435005, 2010; INS-1E cytokine-induced death, ATP luminescence, 48 h; percent of positive-control rescue, neutral wells zero; actives 0.8% (n = 300,000);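 active means all replicates at 75% or more, or half of them and the mean; inconclusive means half reach 75% but not the mean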;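 further: 0% = cytokine-treated negative control wells and 100% = positive control rescue; higher means more ATP so stronger rescue from cytokine killing; wells of about 40 µL received 100 nL stock; the first replicate is given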
# T cruzi repl = inhibitors of intracellular T. cruzi growth, primary screen, luminescence, NIH3T3 host cells | T. cruzi beta-gal in NIH3T3, 90 h | inhibition, % (no concentration beside the values) | actives 1.4% (n = 300,000) | AID 1885, 2009;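 active means mean inhibition across valid replicates above about 55%, limit read from the data; inconclusive means mean below that limit but half or more replicates reach it; inactive means mean below it, under half of replicates reach it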;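 further: signal also drops with host cell toxicity which is not excluded here; 0% = plate median of DMSO wells and 100% = zero luminescence signal; higher percent means less beta-gal luminescence so fewer parasites; stock transfer was 50 nL into about 50 µL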
# rRNA inh HTS = reduced GFP signal of wild-type E. coli, primary screen, bacterial rRNA inhibitor project, GFP/RFP fluorescence, OD600, single point | E. coli WT GFP vs humanized-ribosome RFP mutants, 24 h; active compounds read low; DMSO median 0, no signal -100 | GFP signal change (wild-type ribosome), % (no concentration beside the values) | actives 1.6% (n = 350,000) | AID 720706, 2013;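 active means significant combined selectivity score with lowered wild-type GFP, culture density cut under 30%, mutant RFP and density less affected; inactive means any of these conditions unmet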; further: one replicate is shown; some compounds called inactive have numbers as strong as hits
# A1 inh = caspase 3/7 activation in MEF A1-2A-BIM cells, primary screen, A1 inhibitor project, cell-based, luminescence, HTS; Caspase-Glo 3/7 luminescence, 3 h; percent of clofoctol response, vehicle zero; caspase activation, % (no concentration beside the values); actives 0.066% (n = 330,000);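 active means over half of replicate activation scores above 10%, or exactly half above 10 with the replicate mean above 10; inconclusive means replicate mean below 10 yet half the replicates above 10; inactive means over half of replicates below 10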;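 further: wells of about 30 µL received 50 nL stock; many hits fall short of the cut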
# ALR inh = inhibitors of human ALR sulfhydryl oxidase, primary screen, biochemical, H2O2 detection, HRP-luminol luminescence, single point; actives 3.8% (n = 290,000); purified ALR, DTT oxidation; FAD-linked sulfhydryl oxidase ALR (Homo sapiens), P55789; inhibition, % (test concentration not listed);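 active means mean and each replicate at 75% or more; inconclusive means only one of the two met; inactive means neither met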;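 further: stock transfer was 7.5 nL into about 7.5 µL; 0% = neutral wells and 100% = wells with inactivated enzyme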
# Target sequence (P55789 whole entry, looked up): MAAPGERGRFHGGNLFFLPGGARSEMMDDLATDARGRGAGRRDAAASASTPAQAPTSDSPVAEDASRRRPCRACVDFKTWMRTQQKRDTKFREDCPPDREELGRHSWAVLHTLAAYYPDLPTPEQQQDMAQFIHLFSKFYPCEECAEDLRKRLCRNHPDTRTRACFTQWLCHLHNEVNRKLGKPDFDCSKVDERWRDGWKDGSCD
# LANA-H2A inh = blockers of LANA interaction with H2A/H2B – biochemical, FP readout, HTS, primary screen; Protein LANA1 (Human herpesvirus 8 type P (isolate GK18)), Q9QR71; inhibition, % (test concentration not listed); cell-free LANA-H2A/H2B peptide, fluorescence polarization; AID 2629, 2010; actives 0.6% (n = 320,000); in the data active means inhibition mostly above about 10%, no sharp cut-off; inactive means mostly below about 6.7%;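 further: stock transfer was 7.5 nL into about 10 µL; 0% = median of vehicle wells and 100% = median of positive control wells; one replicate is shown; the record names a cut of 25% in any replicate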
# rRNA inh HTS OD600 = also measured in rRNA inh HTS; calls as there; OD600 change, %; measured here: OD600 growth;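 optical density of the mix in the first replicate; 0 = DMSO median and -100 = no signal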
# rRNA inh HTS RFP = second read-out of rRNA inh HTS, no call of its own (marks repeat the call); RFP signal change, %; measured here: RFP humanized mutant strains;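 first replicate; 0 = DMSO median and -100 = no signal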
# * marks the source's active call; other numbers are inactive results; ? = inconclusive; / = no result given. Not all compounds are listed; rates above refer to the full screens.
SMILES,Calb FLC,Beta2AR agonist,Beta apoptosis,T cruzi repl,rRNA inh HTS,rRNA inh HTS OD600,rRNA inh HTS RFP,A1 inh,ALR inh,LANA-H2A inh
CCC1(c2ccccc2)NC(=O)N(CC(=O)N(C)Cc2ccccc2)C1=O (configuration not stated),-34,1,1,-8,5,4,0.2,0.9,/,5.5
COc1cc(C2C(=O)N(C3CCCC3)CC(=O)N2Cc2ccco2)ccc1OC(C)C (configuration not stated),-15,-4,2,-6,/,/,/,0.3,-5,-4.1
O=C1CC(=O)CC(c2ccccc2)C1,-6,2,-6,-5,4,-3,-1.7,-0.3,-2,6.3
COc1ccc(NC2CCN(C3CC(=O)N(c4ccc(F)c(Cl)c4)C3=O)CC2)cc1 (configuration not stated),9,-2,-4,-4,/,/,/,-1.8,82*,-2.3
O=C(CCCc1nc2ccccc2s1)N1CCN(S(=O)(=O)c2cccs2)CC1,6,5,-4,5,/,/,/,1.3,-3,-1.6
CCCCOc1ccc(N2C(=O)CC(NCc3ccncc3)C2=O)cc1 (configuration not stated),6,-11,-1,-3,-9,-4,5.1,0.8,0,2.6
COCC(C)NC(=O)c1cc(-c2cccc(OC)c2)on1 (configuration not stated),-6,7,-3,-3,-12,-1,-6.3,-2.2,-5,1.3
O=C(CSc1nc(C2CCCCC2)nc2ccccc12)NCc1ccco1,-3,-23,-11,25,-17,-7,0.4,-0.3,-2,-3.3
CCC1(CC)C(=O)C2=C3C1[C@H](C(=O)OC)C=C(C(=O)OC)C[C@H]3n1c(=O)n(C)c(=O)n1[C@H]2C (some centres not stated),-24,-15,-4,-11,7,7,-1.6,-0.1,-3,-2.1
COC(=O)c1ccc(CNC(=O)c2ccc(OCC(=O)N3CCOCC3)c(OC)c2)cc1,-1,2,-1,-2,4,8,-4.0,0.1,-10,1.5
N#Cc1c(-c2ccccc2)cc(-c2ccc3c(c2)OCO3)[nH]c1=O,/,1,-5,/,/,/,/,0.5,0,2.7
CC(C)C(=O)NC(=S)Nc1ccccc1C(=O)Nc1ccccc1,33,1,/,-1,18,6,0.5,0.4,0,-7.8
COC(=O)c1ccccc1NC(=O)CSc1nncn1C,-13,-7,0,-11,10,-1,-0.9,-0.8,-5,11
CSc1ccccc1C(=O)C1CCCN(C(=O)CCc2cccnc2)C1 (configuration not stated),1,-2,-2,/,7,5,-0.3,1.3,-5,-2.6
COc1ccc(NC(=O)C2C(=O)NC3(C)CC2c2ccccc2O3)cc1 (configuration not stated),-2,-9,-5,-9,/,/,/,-0.5,-2,1.9
O=C(c1ccc(Cl)c(Cl)c1)N1CCC(=O)N(C(COCc2cccc(C(F)(F)F)c2)Cc2ccccc2)CC1 (configuration not stated),5,4,-9,6,4,2,-8.2,2.1,-3,-0.3
O=C(CCNS(=O)(=O)c1cccc2nonc12)Nc1ccc(Cl)cc1,9,-11,-9,7,-9,-24,17,0.0,/,-13
CCOC(=O)c1c(-c2ccc(OC)cc2)csc1/N=C/C1=C(O)CCCC1=O,2,4,10,3,/,/,/,0.9,/,/
COc1ccc(C2=NCCn3cccc32)c(OC)c1,12,-13,-1,-17,/,/,/,-0.3,-4,-2.3
CCOC(=O)c1ccc(NC(=O)CSc2n[nH]c(-c3ccncc3)n2)cc1,/,5,-4,-14,/,/,/,0.0,-6,0.0
CCN(CC)S(=O)(=O)c1ccc(-c2nnc(SCC(=O)Nc3cc(OC)cc(OC)c3)o2)cc1,11,-7,-3,18,/,/,/,-1.8,-28,0.2
CCc1nnc(NC(=O)c2ccc(Cl)nc2)s1,28,-3,12,-1,2,6,0.5,-0.6,/,-5.5
CCOc1cc2[nH]c(=S)n(CCC(=O)NCc3ccco3)c(=O)c2cc1OCC,3,1,9,-2,14,7,1.4,-0.1,5,-0.6
NC(=O)c1ccccc1NC(=O)COc1ccc2c(c1)OCO2,-3,-3,3,-1,13,19,2.1,-4.6,-2,2.6
O=C(COC(=O)c1ccc(O)cc1O)Nc1cc(-c2ccccc2)nn1-c1ccccc1,4,18,12,41,-12,-19,3.1,0.4,-3,-1.7

# Already shown: 9 of the compounds above.
SMILES,Calb FLC,Beta2AR agonist,Beta apoptosis,T cruzi repl,rRNA inh HTS,rRNA inh HTS OD600,rRNA inh HTS RFP,A1 inh,ALR inh,LANA-H2A inh
CCC1(c2ccccc2)NC(=O)N(CC(=O)N(C)Cc2ccccc2)C1=O (configuration not stated),-34,1,1,-8,5,4,0.2,0.9,/,5.5
COc1cc(C2C(=O)N(C3CCCC3)CC(=O)N2Cc2ccco2)ccc1OC(C)C (configuration not stated),-15,-4,2,-6,/,/,/,0.3,-5,-4.1
O=C1CC(=O)CC(c2ccccc2)C1,-6,2,-6,-5,4,-3,-1.7,-0.3,-2,6.3
COc1ccc(NC2CCN(C3CC(=O)N(c4ccc(F)c(Cl)c4)C3=O)CC2)cc1 (configuration not stated),9,-2,-4,-4,/,/,/,-1.8,82*,-2.3
O=C(CCCc1nc2ccccc2s1)N1CCN(S(=O)(=O)c2cccs2)CC1,6,5,-4,5,/,/,/,1.3,-3,-1.6
CCCCOc1ccc(N2C(=O)CC(NCc3ccncc3)C2=O)cc1 (configuration not stated),6,-11,-1,-3,-9,-4,5.1,0.8,0,2.6
COCC(C)NC(=O)c1cc(-c2cccc(OC)c2)on1 (configuration not stated),-6,7,-3,-3,-12,-1,-6.3,-2.2,-5,1.3
O=C(CSc1nc(C2CCCCC2)nc2ccccc12)NCc1ccco1,-3,-23,-11,25,-17,-7,0.4,-0.3,-2,-3.3
CCC1(CC)C(=O)C2=C3C1[C@H](C(=O)OC)C=C(C(=O)OC)C[C@H]3n1c(=O)n(C)c(=O)n1[C@H]2C (some centres not stated),-24,-15,-4,-11,7,7,-1.6,-0.1,-3,-2.1

# (further entries)
SMILES,Calb FLC,Beta2AR agonist,Beta apoptosis,T cruzi repl,rRNA inh HTS,rRNA inh HTS OD600,rRNA inh HTS RFP,A1 inh,ALR inh,LANA-H2A inh
CCN(CC)S(=O)(=O)c1cc(C(=O)Oc2ccccc2OC)ccc1OC,-7,4,-4,-10,/,/,/,1.6,2,1.8
COc1ccc(CCNC(=O)CCCCCn2c(SCC(N)=O)nc3cc4c(cc3c2=O)OCO4)cc1OC,3,-4,3,1,17,9,0.9,0.9,-3,0.4
O=C1NC2(CCCCCCC2)C(=O)N1Cc1ccc(F)cc1,?,0,-4,25,-14,-13,-1.4,0.5,0,-2.9
CCCS(=O)(=O)n1nc(-c2ccc(OC)cc2OC)cc1N,-3,8,/,-4,8,9,-0.5,-0.1,11,0.5
Cc1ccc(NS(=O)(=O)c2ccc(C3CCCCC3)cc2)cc1,-1,-7,43,-19,-26,-54,26,-0.8,2,1.5
O=C(NCc1ccc(F)cc1)C1CC(=O)N(C2CCCCC2)C1 (configuration not stated),-6,-1,-2,4,0,7,-1.3,0.0,-2,0.0
CCOC(=O)N1CCN(C(=O)c2ccc(Cl)c(S(=O)(=O)Nc3ccccc3)c2)CC1,-24,3,6,-6,/,/,/,0.9,-5,-2.3
O=C(N/N=C/C(Cl)=C/c1ccccc1)c1ccc2c(c1)OCO2,/,5,17,/,6,12,1.9,-1.3,-4,-1.6
CCCc1nnc(SCC(=O)N2CCCC(C)C2)n1CCCOC (configuration not stated),-6,-17,3,-3,/,/,/,1.0,-3,1.5
O=C(c1ccc(-n2cncn2)c([N+](=O)[O-])c1)N1CCN(S(=O)(=O)c2c(F)cccc2F)CC1,6,4,1,-17,8,8,0.3,0.5,-12,2.0
O=C(Nc1ccc2c(c1)OCCO2)C1CCCN1C(=O)Nc1ccccc1 (configuration not stated),-4,-5,-6,-8,10,17,0.6,-0.1,-1,-8.3
CC(C)N(Cc1cc2ccccc2[nH]c1=O)C(=O)c1cccc([N+](=O)[O-])c1,10,-7,-4,-15,7,6,-4.2,0.2,-2,-3.1
Cc1sc2nc(CN(C(=O)NC3CCCCC3)C3CCCC3)[nH]c(=O)c2c1C,13,-5,/,19,-4,-6,3.3,0.3,53,3.6
CCOC(=O)C1CCN(C(=O)c2cc3cc4cc(OC)ccc4nc3o2)CC1,1,7,-6,8,/,/,/,-1.1,-13,-3.0
CCc1cc2c(-c3ccccc3)cc(=O)oc2cc1OC(C)C(C)=O (configuration not stated),2,3,2,6,-8,-15,8.0,-1.9,-7,0.2
CCOC(=O)Cn1c(=O)oc2cc(S(=O)(=O)NCCC(C)C)ccc21,0,11,-4,-1,1,3,2.1,-0.4,6,-1.9
O=C(NCCN1CCCC1)C1CC(=O)N(C2CCCCC2)C1 (configuration not stated),-1,2,-4,5,/,/,/,0.1,-2,-5.7
COc1nn(CC(=O)N2N=C(C)CC2(O)C(F)(F)F)cc1[N+](=O)[O-] (configuration not stated),14,-2,-9,-4,/,/,/,-0.4,-3,3.0
C=C1c2ccccc2S(=O)(=O)N(Cc2ccccc2)C1COCc1ccccc1 (configuration not stated),3,5,-8,4,-2,-3,-3.5,0.2,1,1.8
COc1cc2c(cc1NC(=O)C(C)Sc1cccc[n+]1[O-])oc1ccccc12 (configuration not stated),-11,-4,-16,0,-33*,-4.3*,-2.9*,0.3,29,-5.6
Cc1ccccc1/C=N/NC(=O)Cc1ccc(Cl)cc1,-9,-1,-2,1,12,5,-1.7,-0.1,-4,2.4
CCS(=O)(=O)N1CCC(C(=O)NCCc2ccccc2)CC1,6,1,-1,-20,/,/,/,-0.1,-3,-2.1
COc1nc2ccccc2nc1N1CCN(Cc2ccc3c(c2)OCO3)CC1,-19,-3,/,15,7,-32,-1.6,/,/,/
CCOc1cc(S(=O)(=O)N2CCC(c3nc4ccccc4s3)CC2)c(OCC)cc1S(=O)(=O)N1CCCCC1,-6,-4,-1,8,10,13,-0.9,0.3,-1,-2.7
CCC(=O)N1N=C(c2ccc(NS(C)(=O)=O)cc2)CC1c1ccc(C)cc1 (configuration not stated),-10,-3,1,-3,/,/,/,0.3,-12,-0.3

# Some of these compounds in order of the rRNA inh HTS OD600 value, largest number first.
Molecule	rRNA inh HTS OD600
CCCS(=O)(=O)n1nc(-c2ccc(OC)cc2OC)cc1N	9
COc1cc2c(cc1NC(=O)C(C)Sc1cccc[n+]1[O-])oc1ccccc12 (configuration not stated)	-4.3*
COc1nc2ccccc2nc1N1CCN(Cc2ccc3c(c2)OCO3)CC1	-32
